Screening results as filed in PubChem.
HPGD block – qHTS Assay for Inhibitors of HPGD (15-Hydroxyprostaglandin Dehydrogenase) | Potency, µM, inactives show at the highest dose activity change, negative = inhibition, hits mostly inhibitors | hit rate 4.3% among 150,000 | purified HPGD, NADH fluorescence kinetic, PGE2 substrate | AID 894, 2007; active = well fitted inhibition curve with a large enough effect (not every such curve was filed as active); inconclusive = small, poorly fitted or top-dose-only effect, or another doubt; inactive = no such curve, though single readings can be large or run the other way;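 further: top concentration of the series not given in the record; plate controls included wells without enzyme; inactives centre near -10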
Target sequence (P15428 whole entry, looked up): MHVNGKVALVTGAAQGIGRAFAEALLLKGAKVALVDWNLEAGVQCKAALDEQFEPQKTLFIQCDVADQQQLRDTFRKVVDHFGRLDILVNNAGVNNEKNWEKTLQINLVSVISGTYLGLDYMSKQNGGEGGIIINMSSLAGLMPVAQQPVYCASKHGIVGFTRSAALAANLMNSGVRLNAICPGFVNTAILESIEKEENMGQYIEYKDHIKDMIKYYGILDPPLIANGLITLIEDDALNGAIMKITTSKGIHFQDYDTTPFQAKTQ
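NADH formation kinetics: reaction with 30 uM PGE2 and 1 mM NAD+ (final), 20 nM enzyme, Tris-HCl pH 8 with Tween 20, after 15 min compound preincubation at room temperature. Fluorescence change, last versus first of five reads.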
Starred values were filed as active, the others as inactive. On the % scale 0 is the no-effect control and ±100 the full control effect; potency means the concentration at half of the fitted maximal effect. These rows are one share of the data (hit frequency here may not be typical).

`O=C(Nc1nnc(-c2ccncc2)o1)C1CCCCC1` gave HPGD block inconclusive.
For CC(Nc1cc(N2CCNCC2)ccc1[N+](=O)[O-])c1ccccc1 (stereo not drawn) the results were HPGD block inconclusive.
For CC1CCN(C2=C(NS(=O)(=O)c3ccc(Cl)cc3)C(=O)c3ccccc3C2=O)CC1 the results were HPGD block -6.9%.
COc1ccc(CCN(C)C(=O)CSc2nccn2C)cc1OC was read as HPGD block -12.3%.
`C=CCn1c(Cc2csc(N)n2)nnc1SCC(=O)OCC` gave HPGD block 2.0%.
C#C[C@]1(O)CCC2C3CCC4=C(CCC(=O)C4)C3CC[C@@]21C (stereo partly drawn) was read as HPGD block -3.8%.
Cc1oc(-c2cccs2)nc1CS(=O)CC(=O)NCCc1ccccc1 (stereo not drawn) was read as HPGD block 31.6µM*.
Screening CC(C)C1C(C#N)=C(N)Oc2n[nH]c(-c3ccc4ccccc4c3)c21 (stereo not drawn) returned HPGD block -5.3%.
CCCCN(C)CCNC(=O)c1c[nH]c2ccc(S(=O)(=O)N(CC)CC)cc2c1=O was read as HPGD block inconclusive.
Screening Cc1ccc(NC(=O)C2(c3ccccc3)CCOCC2)c([N+](=O)[O-])c1 returned HPGD block -3.8%.
Cc1cc(NC(=O)CCC(=O)N(c2cccc(F)c2)C(C(=O)NC2CCCC2)c2ccncc2)no1 (stereo not drawn) was read as HPGD block -8.3%.
For Cc1cccc(-c2nnc3sc(-c4ccccc4)nn23)c1 the results were HPGD block -14.8%.
`COc1cccc(N2C(=O)CC(N3CCC(c4nc5ccccc5[nH]4)CC3)C2=O)c1` (stereo not drawn) gave HPGD block -13.6%.
For CCCC(=O)Nc1ccc(Cl)c(NC(=O)c2ccc(Br)o2)c1 the results were HPGD block -3.3%.
`CCOc1ccc(C(=O)c2nc3c(n2O)CCCCC3)cc1` gave HPGD block inconclusive.
Screening Cc1nnc(SC(C)C(=O)Nc2ccc3c(c2)OCCO3)s1 (stereo not drawn) returned HPGD block -16.6%.
For COc1cccc(-c2cc(C(=O)N3CCN(c4ncccn4)CC3)c3ccccc3n2)c1 the results were HPGD block -14.9%.
Screening O=C(NCC(=O)N(c1cccnc1)C(C(=O)NC1CCCCC1)c1cccnc1)c1ccco1 (stereo not drawn) returned HPGD block -15.9%.
For O=C(CCC(=O)Nc1ccccc1)N/N=C/c1ccco1 the results were HPGD block -13.7%.
Screening COc1cccc(NC(=O)CSc2c3c(nc4ccccc24)CCCC3)c1 returned HPGD block -15.5%.
Screening CN(C)c1ccc(-c2nnn(CC(=O)Nc3ccccc3N3CCOCC3)n2)cc1 returned HPGD block inconclusive.
`Cn1c(SCC(=O)N2CCOCC2)nc2sc3c(c2c1=O)CCCC3` gave HPGD block -14.1%.
Cc1ccc(NC(=O)CN2C(=O)S/C(=C\C(=O)Nc3ccc(Cl)cc3)C2=O)cc1 was read as HPGD block -11.5%.
CCOC(=O)CC(NS(=O)(=O)c1ccc(NC(C)=O)cc1)c1ccc(OCC)cc1 (stereo not drawn) was read as HPGD block -3.2%.
For O=C(NNC(=O)C1CCN(S(=O)(=O)c2ccc(Cl)cc2)CC1)c1ccc(Cl)cc1 the results were HPGD block 2.0%.
Screening O=C(O)c1ccc(Oc2nc3ccccc3s2)cc1 returned HPGD block -11.5%.
Screening CC(=O)c1ccc(Oc2ccc(C(C)=O)cc2)cc1 returned HPGD block inconclusive.
For COC(=O)c1ccc(COc2ccccc2/C=C(\C#N)C(=O)Nc2ccc(C)cc2C)cc1 the results were HPGD block -20.1%.
For O=C(NCc1ccco1)C12CC3CC(CC(C3)C1)C2 the results were HPGD block -26.6%.
Screening Cc1ccccc1C1C(C#N)=C2NC(=O)c3c(sc4c3CCCCC4)N2C2=C1C(=O)CC(C)(C)C2 (stereo not drawn) returned HPGD block -2.1%.
Screening Cc1ccc(NS(=O)(=O)c2ccc(C)c(C(=O)N3CCN(C)CC3)c2)cc1 returned HPGD block -5.3%.
COc1ccccc1OCCn1cc(/C=C(\C#N)C(=O)NCc2cccs2)c2ccccc21 was read as HPGD block -23.6%.
`CCCN1C(=O)c2cc(C(=O)Nc3ccccc3CC)ccc2C1O` (stereo not drawn) gave HPGD block 2.4%.
For CCCn1c(SCC(=O)c2ccc(OC)c(OC)c2)nc2c1c(=O)n(C)c(=O)n2C the results were HPGD block -19.2%.
For COCc1nnc(NC(=O)c2ccc(Cl)cc2[N+](=O)[O-])s1 the results were HPGD block -19.1%.
Screening Cc1ccc(-c2nc(C3CCN(S(=O)(=O)c4ccc(C(F)(F)F)cc4)CC3)no2)cc1 returned HPGD block -2.0%.
For CCN1C(=O)S/C(=C/c2ccsc2)C1=O the results were HPGD block -28.4%.
Screening CCOC(=O)CNc1ccc2c(c1)OCO2 returned HPGD block inconclusive.
`Cc1sc(NC(=O)c2cccc([N+](=O)[O-])c2)c(C(N)=O)c1-c1ccc(C(C)(C)C)cc1` gave HPGD block -17.3%.
For CCOc1cc(C(=S)N2CCCCC2)ccc1OS(=O)(=O)c1ccc(Cl)cc1 the results were HPGD block -12.1%.

Among those listed so far, 3 have an NH in an aromatic ring:
Screening CC(C)C1C(C#N)=C(N)Oc2n[nH]c(-c3ccc4ccccc4c3)c21 (stereo not drawn) returned HPGD block -5.3%.
CCCCN(C)CCNC(=O)c1c[nH]c2ccc(S(=O)(=O)N(CC)CC)cc2c1=O was read as HPGD block inconclusive.
`COc1cccc(N2C(=O)CC(N3CCC(c4nc5ccccc5[nH]4)CC3)C2=O)c1` (stereo not drawn) gave HPGD block -13.6%.

Following part
Cc1cccc2c1NC(C)CC2C (stereo not drawn) was read as HPGD block -5.2%.
Screening COc1ccc(C2CC(c3cccs3)=NN2C(=O)CSc2nc3c(cnn3-c3ccccc3)c(=O)[nH]2)cc1 (stereo not drawn) returned HPGD block inconclusive.
Screening Cn1c(N2CCOCC2)nc(-c2ccccc2)c1-c1ccccc1 returned HPGD block inconclusive.
`Cc1ccc(OCCN(C)C)c([N+](=O)[O-])c1` gave HPGD block 6.2%.
For Cc1cc(NC(=O)CSc2nnc(-c3ccco3)n2CC2CCCO2)no1 (stereo not drawn) the results were HPGD block -10.0%.
`Cc1ccc(CSCCNC(=O)CCSc2ccccc2)cc1` gave HPGD block inconclusive.
Screening O=C(Nc1cccc(-c2cn3ccccc3n2)c1)c1cccs1 returned HPGD block -12.4%.
Cc1cc(OCC(O)CN2CCN(C)CC2)ccc1C(C)C (stereo not drawn) was read as HPGD block -2.2%.
O=C(NCc1nnc(SCC(=O)N2CCC(Cc3ccccc3)CC2)o1)c1ccccc1F was read as HPGD block -8.6%.
`CS(=O)(=O)N(CC(=O)Nc1ccccc1Sc1ccccc1)c1cccc(Br)c1` gave HPGD block -6.4%.
O=C(Cn1nc(Cl)nc1Cl)c1ccc2c(c1)OCCO2 was read as HPGD block -5.2%.
CC(=O)Oc1ccc(C(=O)Nc2cccc(C(=O)c3cccc(NC(=O)c4ccc(OC(C)=O)cc4)c3)c2)cc1 was read as HPGD block -26.1%.
`CCC1=NN(C(=O)c2ccc(C)cc2)C(O)(c2ccc(Br)cc2)C1` (stereo not drawn) gave HPGD block -17.6%.
`CCOC(=O)N1CCN(C(=O)CSCC(=O)Nc2nc(-c3ccc(-c4ccccc4)cc3)cs2)CC1` gave HPGD block -16.8%.
Screening Cc1ccccc1CNS(=O)(=O)c1ccc2c(c1)OCCO2 returned HPGD block 25.1µM*.
For Cc1ccc(NC(=O)Cc2noc3ccccc23)cc1 the results were HPGD block -3.6%.
For COC(=O)c1sccc1NC(=O)CSc1cccc(Cl)c1Cl the results were HPGD block -11.9%.
Screening CC(CN(C)C)NC(=O)c1ccc(-n2c(=O)c(=O)[nH]c3ccccc32)cc1 (stereo not drawn) returned HPGD block -6.7%.
`COc1cccc(-c2cc(=O)c3cc(NC(=O)c4cccnc4)ccc3[nH]2)c1` gave HPGD block -10.4%.
Screening Brc1ccc(C2=CC(c3cccs3)n3ncnc3N2)cc1 (stereo not drawn) returned HPGD block -24.7%.
For c1ccc(CCc2nn3c(C4COc5ccccc5O4)nnc3s2)cc1 (stereo not drawn) the results were HPGD block 10µM*.
Screening Cc1ccc(-c2nc(C#N)c(NCCc3ccccn3)o2)cc1 returned HPGD block inconclusive.
NS(=O)(=O)c1ccc(CCNC(=O)CNC(=O)C2CCCCC2)cc1 was read as HPGD block -6.6%.
`COc1ccc([C@@H]2[C@@H](C(=O)C(C)(C)C)N3N=Cc4ccccc4[C@@H]3C23C(=O)OC(C)(C)OC3=O)cc1OC` gave HPGD block -1.2%.
Screening COCCCn1c(SCc2nnc(-c3ccc(OC)c(OC)c3)o2)nnc1-c1ccncc1 returned HPGD block -7.4%.
CC(C)n1c(NCc2nc3ccccc3n2C)nc2ccccc21 was read as HPGD block -4.3%.
For COc1ccc(/C(C)=N/NC(=O)CCC(=O)Nc2ccc(Cl)cc2Cl)c(OC)c1 the results were HPGD block -6.8%.
C=CCSc1nnc(NC(=O)CSc2nc3ccccc3[nH]2)s1 was read as HPGD block inconclusive.
Screening O=C(/C=C/c1ccco1)NCCCN1CCN(CCCNC(=O)/C=C/c2ccco2)CC1 returned HPGD block -1.9%.
For CN1CCN(c2ccc([N+](=O)[O-])c(Sc3nc4ccccc4[nH]3)c2)CC1 the results were HPGD block -10.6%.
Screening CCCC1(c2ccccc2)NC(=O)N(CCN2C(=O)c3ccccc3C2=O)C1=O (stereo not drawn) returned HPGD block -24.0%.
For C[C@@H]1CCN=C(N)S1 the results were HPGD block -4.0%.
`COC(=O)c1ccccc1NC(=O)Cn1c(-c2nonc2N)nc2ccccc21` gave HPGD block 1.0%.
Screening FC(F)(F)c1cccc(NC(=S)NCC2COc3ccccc3O2)c1 (stereo not drawn) returned HPGD block inconclusive.
For O=C(Nc1cccs1)NC1CCCC1 the results were HPGD block 31.6µM*.
Screening Cc1ccccc1NC(=O)Cn1cnc2c(oc3ccccc32)c1=O returned HPGD block -13.1%.
For CC(NC(=O)Cc1c(F)cccc1Cl)C1CCCO1 (stereo not drawn) the results were HPGD block -4.7%.
Cc1nn(-c2ccccc2)c(C)c1/C=C/C(=O)OC(C)C(=O)Nc1ncc(Cl)cc1Cl (stereo not drawn) was read as HPGD block -0.9%.
COc1cccc(OC)c1C(=O)N1CCN(S(=O)(=O)c2ccc(C)cc2)CC1 was read as HPGD block 0.4%.
Screening CC(C)(C)C1CCc2c(sc(NC(=O)c3ccncc3)c2C(N)=O)C1 (stereo not drawn) returned HPGD block -27.7%.
For CCOC(=O)C1=C(N2CCCCC2)c2cc3c(n2C1=O)CCCC3 the results were HPGD block -14.9%.
For COCCCNC(=O)CCc1ccc(S(=O)(=O)Nc2ccc(C)cc2)cc1 the results were HPGD block -8.5%.
`CCOc1ccc2[nH]c(=O)c(CN(Cc3ccc(C)cc3)C(=O)N3CCCC3)cc2c1` gave HPGD block inconclusive.
`Cc1ccccc1Cn1ccc(-c2ccc(Cl)cc2)c(C#N)c1=O` gave HPGD block inconclusive.
Screening O=C(NCc1cccnc1)c1cccnc1Sc1ccc(Cl)cc1 returned HPGD block -9.4%.
`COc1cc(C(=O)NCc2nnc(SCC(=O)N3CCCCC3)o2)cc(OC)c1OC` gave HPGD block -6.3%.
O=C(O)c1c(Cl)cccc1Cl was read as HPGD block -9.0%.
`CCOC(=O)C1CCN(Cc2c(F)cccc2Cl)CC1` gave HPGD block 4.2%.
CC1=C(C#N)C(c2cn(-c3ccccc3)nc2-c2cccs2)C(C#N)=C(C)N1 was read as HPGD block -5.6%.
For CCOc1ccc(CCNC(=O)c2oc3c(c2C)-c2[nH]ncc2CC3)cc1OCC the results were HPGD block -1.5%.
`CC1(C)Cc2c(sc(NC(=O)c3ccco3)c2C#N)C(C)(C)N1` gave HPGD block -14.2%.
Screening Cc1ccc(C(=O)NN2C(=O)C3C4c5ccccc5C(c5ccccc54)C3C2=O)cc1 (stereo not drawn) returned HPGD block -7.3%.
CCCCn1c(SCC(=O)NCc2ccco2)nc2c1c(=O)n(C)c(=O)n2C was read as HPGD block -1.4%.
O=c1c2ccccc2ncn1C1CCCCC1 was read as HPGD block -12.8%.
For CON(C)c1nc(OCC#N)nc(N(C)C)n1 the results were HPGD block -2.9%.
Screening CC(C)N1C(=O)CN(C2CCCCCC2)C(=O)C1c1ccccc1F (stereo not drawn) returned HPGD block -11.7%.
Screening CN1C(=O)/C(=C/c2ccccc2OCc2ccccc2F)NC1=S returned HPGD block -27.5%.
For CC(C)(C)c1ccc(NC(=O)COC(=O)CCc2nc3ccccc3c(=O)[nH]2)cc1 the results were HPGD block inconclusive.
CC(NC(=O)Nc1ccccc1C(F)(F)F)C1CCCO1 (stereo not drawn) was read as HPGD block 2.4%.
For Cc1nc2c3ccccc3nc(NNC(=O)CCC(=O)NCCC(C)C)n2n1 the results were HPGD block -10.6%.

Grouped by structure, the compounds so far containing a nitro group on carbon
For CC(Nc1cc(N2CCNCC2)ccc1[N+](=O)[O-])c1ccccc1 (stereo not drawn) the results were HPGD block inconclusive.
Screening Cc1ccc(NC(=O)C2(c3ccccc3)CCOCC2)c([N+](=O)[O-])c1 returned HPGD block -3.8%.
For COCc1nnc(NC(=O)c2ccc(Cl)cc2[N+](=O)[O-])s1 the results were HPGD block -19.1%.
`Cc1sc(NC(=O)c2cccc([N+](=O)[O-])c2)c(C(N)=O)c1-c1ccc(C(C)(C)C)cc1` gave HPGD block -17.3%.
`Cc1ccc(OCCN(C)C)c([N+](=O)[O-])c1` gave HPGD block 6.2%.
For CN1CCN(c2ccc([N+](=O)[O-])c(Sc3nc4ccccc4[nH]3)c2)CC1 the results were HPGD block -10.6%.

Going on with the list.
COC(=O)c1ccccc1OCC(=O)N1CCN(c2ccc(OC)cc2)CC1 was read as HPGD block -6.1%.
`C(=N\N1CCN(C2c3ccccc3-c3ccccc32)CC1)/c1cccnc1` gave HPGD block -3.0%.
CC1CCN(S(=O)(=O)c2ccc3c(c2)CCN3C(=O)CCC(=O)O)CC1 was read as HPGD block -13.8%.
Screening C=CCn1c(SCCOc2ccccc2)nnc1C(C)NC(=O)c1ccccc1 (stereo not drawn) returned HPGD block -5.8%.
